N370S GC – inhibitors or activators of N370S glucocerebrosidase for Gaucher disease; P04062; N370S GC spleen homogenate, 4MU-glucoside fluorescence; Potency, µM (titrated, usually from 59.4 µM), for the others: at the top dose activity change, negative = inhibition, hits mostly inhibitors; 330,000 tested, 0.092% active; AID 2101;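 further: 0% = full enzyme activity and -100% = no enzyme basal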
TDP1 block – TDP1 (human) enzyme inhibition; AID 485290; 350,000 tested, 0.28% active; Potency, µM (series often up to 130 µM), inactives show at the top dose activity change, negative = inhibition, actives largely listed as inhibitors; recombinant TDP1, AlphaScreen DNA substrate cleavage; Q9NUW8; further: nearly all actives have a fitted effect of over 40% in size
Target sequence (Q9NUW8 whole entry, looked up): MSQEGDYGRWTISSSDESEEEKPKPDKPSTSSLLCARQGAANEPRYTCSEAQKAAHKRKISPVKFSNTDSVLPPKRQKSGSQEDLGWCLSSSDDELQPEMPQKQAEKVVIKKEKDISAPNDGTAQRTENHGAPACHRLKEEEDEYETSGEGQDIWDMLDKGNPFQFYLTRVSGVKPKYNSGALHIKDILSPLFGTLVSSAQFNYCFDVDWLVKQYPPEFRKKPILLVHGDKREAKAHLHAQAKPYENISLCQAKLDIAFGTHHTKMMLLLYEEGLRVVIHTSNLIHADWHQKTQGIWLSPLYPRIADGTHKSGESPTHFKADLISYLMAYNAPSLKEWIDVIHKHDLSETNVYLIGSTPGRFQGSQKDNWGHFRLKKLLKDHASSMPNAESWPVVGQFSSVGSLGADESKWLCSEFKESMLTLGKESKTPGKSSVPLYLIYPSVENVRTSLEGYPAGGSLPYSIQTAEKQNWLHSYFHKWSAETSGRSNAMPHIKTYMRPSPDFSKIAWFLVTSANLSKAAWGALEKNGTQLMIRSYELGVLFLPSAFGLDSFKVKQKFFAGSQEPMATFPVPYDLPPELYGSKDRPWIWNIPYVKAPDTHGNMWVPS
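Recombinant human Tdp1 (E. coli-expressed, 1 nM final) preincubated with compounds 15 min at room temperature, then 5'-biotin/3'-phosphotyrosine-FITC DNA substrate (15 nM final) added for 5 min. AlphaScreen beads (10 ug/ml final) added 10 min; cleavage lowers signal.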
Numbers without * were called inactive; . = no result given; [ ] = remark or other dose. The call rests on the fitted dose curve; in most records, active means well fitted curve in the direction sought with a large enough effect; inconclusive means small, poorly fitted or top-dose-only effect, or another doubt; inactive means no such curve, though single readings can be large; an effect the other way counts as inactive or inconclusive. Unless noted, on the % scale 0 is the no-effect control and ±100 the full control effect; potency means the concentration at half of the fitted maximal effect. Some of the compounds tested, and most or all hits are left out here.

SMILES	N370S GC	TDP1 block
CC(C)(C)NCC(=O)c1c[nH]c2ccccc12	29%	2%
COCCNC(=S)N1CCN(C)CC1	-12%	-5%
Cc1ccc(C)c(NC(=O)CN(C)C(=O)c2cc(S(=O)(=O)N3CCOCC3)ccc2N2CCCC2)c1	-2%	3%
CCN(CC)CCN1C(=O)C2C(C(=O)Nc3ccc(Br)cc3)C3C=CC2(O3)C1C(=O)NC1CCCCC1 (stereo unspecified)	-1%	2%
CCN(CC(=O)NC1CCCCC1)S(=O)(=O)c1ccc(Cl)cc1	-6%	6%
CN1C(C(=O)NCc2cccs2)=CC(c2ccc(F)cc2)=NS1(=O)=O	-12%	5%
CN(Cc1ccccc1)c1nnc(N)s1	5%	4%
Cc1ccc(C(=O)Nc2nc3n(n2)C(c2ccccc2)CC(=O)N3)cc1 (stereo unspecified)	-5%	-1%
CCC(=O)Nc1ccc(C(=O)CSc2nc(N)cc(N)n2)cc1	1%	-1%
CCOc1cc(C(N)=O)cc(OCC)c1OCC	-10%	2%
O=C(O)Cn1c(=O)c(F)cn(C2CCCO2)c1=O (stereo unspecified)	-2%	1%
CC(=N\NC(=O)c1ccccc1)/C(=N/O)C(=O)Nc1ccccc1	-7%	11%
N#Cc1ccc(OCC(=O)NNC(=O)C2CCCCC2)cc1	.	-4%
O=C(/C=C\Nc1ccccn1)c1ccc(Cl)cc1	11%	-3%
CC(=O)N(C(C)=O)C1=C(C#N)C2(CCCCC2)Cc2ccccc21	3%	2%
Cc1cccc(C(=O)NC2CCN(CC(=O)NCc3cccs3)CC2)c1	2%	-6%
CCCNC(=O)C/C(C)=N/NC(=O)COc1ccc(C)cc1Br	11%	-3%
CC(=O)Nc1cc(C(=O)N(C)Cc2ccco2)ccc1Sc1ccc(C)cc1	-2%	1%
COc1ccc(Cl)cc1NC(=O)N1CCN(C2CCCCC2)CC1	10%	3%
COc1ccc(C(CNC(=O)C2CCN(S(=O)(=O)c3ccc(F)cc3)CC2)N(C)C)cc1 (stereo unspecified)	-11%	.
CCCCC(O)(CCCC)C(=O)NN(C(=O)OC)c1ccccc1	-2%	.
COc1ccc(C(=O)Oc2ccc(Br)cc2C(=S)N2CCOCC2)cc1	-5%	-1%[0.0935 µM]
O=C(Nc1cc(C(F)(F)F)ccc1N1CCOCC1)c1ccc(Br)o1	22%	2%
CCOC(=S)SCc1cn2cccc(C)c2n1	6%	6%
CN1C(=S)SC(/[N+]([O-])=C\c2ccc(Cl)cc2)C1(C)C (stereo unspecified)	-4%	0%
CCc1nnc(NC(=O)CCC(=O)N2CCCC(O)C2)s1 (stereo unspecified)	-5%	-1%
Cc1cc(C)n(CCCNC(=O)c2ccc(C)c(S(=O)(=O)N3CCOCC3)c2)n1	-3%	.
CC(=O)N1CCc2cc(S(=O)(=O)NC(Cc3ccccc3)C(=O)Nc3cc(C)ccn3)ccc21 (stereo unspecified)	-10%	7%
O=C(O)c1ccccc1C(=O)c1cccc2ccccc12	-9%	.
Cc1ccccc1COc1ccc(/C=N/NC(=O)c2nnn(-c3nonc3N)c2CN2CCC(C)CC2)cc1	29%	2%
N/C(CS(=O)(=O)c1ccccn1)=N\OC(=O)c1ccc(Cl)cc1	-6%	5%
Cc1cccc(C(=O)NC(=S)Nc2ccc(S(=O)(=O)N3CCCCC3)cc2)c1	6%	4%
O=C(CSc1nc2ccccc2c(=O)n1-c1ccc(F)cc1)Nc1ccc(N2CCOCC2)cc1	-2%	7%
COc1ccc(S(=O)(=O)Nc2nnc(C(C)(C)C)s2)cc1	20%	2%
c1ccc(COc2nsnc2N2CCOCC2)cc1	-19%	6%
CSc1nsc(SCC(=O)Nc2ccc(F)cc2F)n1	4%	.
Nn1c(SCCOc2ccc(Cl)cc2)nnc1-c1cccnc1	15%	5%
COc1cccc(NC(=S)N2CCN(C)CC2)c1	0%	.
CCN1CCc2c(OCC(=O)N3CCCCC3)cccc2C1=O	-23%	1%
O=C(Nc1ccnn1C1CCN(C(=O)c2cccc(C(F)(F)F)c2)CC1)C1CC1	-12%	3%
O=C(c1c[nH]c2ccc(S(=O)(=O)N3CCOCC3)cc2c1=O)N1CCN(c2ccccn2)CC1	4%	3%
O=c1[nH]cc(S(=O)(=O)N2CCN(c3cccc(Cl)c3)CC2)c(=O)[nH]1	-20%	1%
CC(NS(=O)(=O)c1ccc(Br)cc1)C(=O)NCC1CCCO1 (stereo unspecified)	-3%	-15%
Cc1c(N=N/C(C(=O)Nc2ccccc2)=C(/O)c2ccccc2)c(=O)n(-c2ccccc2)n1C	5%	7%
Cc1noc(C)c1COC(=O)c1cccnc1Cl	12%	0%
CCOC(=O)c1sc(NC(=O)C2CC(=O)N(c3ccc(OC)cc3)C2)nc1C (stereo unspecified)	2%	6%
CN(C)c1ccc(CN(C)C2CCCCC2)cc1	25%	-1%
CCOc1ccc(C(=O)CCC(=O)Nc2ccc(C)c(S(=O)(=O)N3CCCCC3)c2)cc1	1%	-2%
CCOC(=O)c1ccc(NC(=S)N(Cc2cccnc2)Cc2ccco2)cc1	-27%	12%
COc1ccc(-c2cc(CNS(=O)(=O)c3ccccc3)on2)cc1	5%	6%
COc1cc(C2C(C(=O)c3cccs3)=C(O)C(=O)N2Cc2ccco2)cc(OC)c1OC (stereo unspecified)	-5%	-6%
NC(=O)CSc1nc2scc(-c3ccc(Cl)cc3)c2c(=O)n1Cc1ccccc1	-7%	0%
OCCNCCOc1ccccc1-c1ccccc1	0%	-12%
CCCNC(=O)COC(=O)c1ccccc1C(=O)N(C)C1CCCCC1	-15%	3%
Cc1ccc(NC(=O)C2CCN(S(=O)(=O)c3cccs3)CC2)cc1C	7%	4%
O=C(N/N=C1\SCC(=O)N1CCc1ccccc1)c1cccs1	8%	4%
Cc1csc(NC(=O)C(C)N2C(=O)c3ccccc3S2(=O)=O)n1 (stereo unspecified)	0%	5%
Cc1cc(NS(=O)(=O)c2ccccc2)c(C)c(Cl)c1O	3%	-4%
CCOC(=O)N1CCN(C(=O)c2ccc3c(=O)n4c(nc3c2)CCCCC4)CC1	3%	-5%
CCCC1=C(C(=O)OCC)C(c2ccco2)C(C#N)=C(N)O1 (stereo unspecified)	-3%	5%

Further compounds:
SMILES	N370S GC	TDP1 block
CC(C)(C)c1cc2cccnc2n1Cc1cccc(F)c1	-8%	-4%
O=C(COc1ccc(Br)cc1Cl)NNC(=O)c1ccccc1	.	0%[56.1 µM]
Nn1c(SCC(=O)Nc2ccc(F)cc2)nnc1-c1ccccn1	-17%	0%
COc1ccc(-c2cnn(C3CCS(=O)(=O)C3)c2N)cc1 (stereo unspecified)	-6%	-5%
COc1ccc(-c2c(C(=O)O)c(C(=O)O)c3n2CCC3)cc1	-3%	.
Cc1ccc(-c2nnn(CC(=O)N(CCO)C(C(=O)NC3CCCC3)c3ccc(F)cc3)n2)o1 (stereo unspecified)	7%	-3%
Cc1nc(NC(=O)c2ccccc2)sc1-c1csc(N)n1	16%	10%
O=C(Nc1cnccn1)c1cccc(C(F)(F)F)c1	3%	0%
CCCc1ccc2oc(C(=O)N3CCC(N4CCCC(O)C4)CC3)c(C)c2c1 (stereo unspecified)	-8%	5%
CC1(C)CC(=O)C=C(Nc2ccccc2F)C1	12%	3%
CCc1ccccc1NC(=O)COc1ccc2oc(-c3ccc(OC)cc3)cc(=O)c2c1	4%	5%
CCCc1ccc(NC(C)C(=O)Nc2ccc(S(=O)(=O)N3CCOCC3)cc2)cc1 (stereo unspecified)	-14%	10%
COc1ccc(CC(=O)NC2CCS(=O)(=O)C2)cc1 (stereo unspecified)	-8%	-11%[0.505 µM]
COc1ccc(CCn2c(=N)c(C(=O)NCC3CCCO3)cc3c(=O)n4ccccc4nc32)cc1 (stereo unspecified)	-4%	2%
CCOc1cc(/C=C2/SC(=S)NC2=O)ccc1OC(=O)c1ccco1	-9%	5%
O=C(Cn1c(-c2ccc(Cl)cc2)noc1=O)N1CCN(c2ccccc2F)CC1	-8%	1%
COc1ccc(-n2c(Cc3cccn3C)nnc2SCC(=O)Nc2ccc3c(c2)OCO3)cc1	0%	11%
O=C(Nc1ccc2c(c1)OCO2)c1ccc(NC2CC2)c([N+](=O)[O-])c1	2%	3%
Cc1ccc(S(=O)(=O)NCC(=O)OCC(=O)NC(=O)NC2CCCC2)cc1	-11%	2%
O=C(c1cc(=O)[nH]c2ccccc12)N1CCN(Cc2ccc3c(c2)OCO3)CC1	0%	2%
Cc1ccc2[nH]c3c(c2c1)CN(C(=O)CN1CCN(c2ccccn2)CC1)CC3	-1%	9%
NC(=O)c1nsc(C(=O)N(c2ccccc2)C(C(=O)NC2CCCC2)c2cccs2)c1N (stereo unspecified)	8%	.
CN(C(=O)COC(=O)/C=C/c1ccc(C(F)(F)F)cc1)C1CCS(=O)(=O)C1 (stereo unspecified)	-1%	0%
CN(C)CC1CCCCC1OC(=O)/C=C/c1ccccc1 (stereo unspecified)	-9%	2%
O=C(CCn1nnc2ccccc21)N1CCN(c2ccccc2)CC1	8%	-2%
CN(C)S(=O)(=O)c1ccc(C(=O)Nc2ccc3c(c2)CCC3)cc1	25%	.
O=C1[C@@H]2C(c3cccnc3)=NO[C@@H]2C(=O)N1c1ccc2ccccc2c1	-4%	5%
CCOC(=O)C1=C(C)N(C)C(=O)NC1c1c(OC)ccc2ccccc12 (stereo unspecified)	-5%	0%
Cc1ccc(C2SCCN2C(=O)c2ccc([N+](=O)[O-])cc2)cc1 (stereo unspecified)	1%	3%

In the list so far, 26 have four or more nitrogen atoms:
SMILES	N370S GC	TDP1 block
Cc1ccc(C)c(NC(=O)CN(C)C(=O)c2cc(S(=O)(=O)N3CCOCC3)ccc2N2CCCC2)c1	-2%	3%
CCN(CC)CCN1C(=O)C2C(C(=O)Nc3ccc(Br)cc3)C3C=CC2(O3)C1C(=O)NC1CCCCC1 (stereo unspecified)	-1%	2%
CN(Cc1ccccc1)c1nnc(N)s1	5%	4%
Cc1ccc(C(=O)Nc2nc3n(n2)C(c2ccccc2)CC(=O)N3)cc1 (stereo unspecified)	-5%	-1%
CCC(=O)Nc1ccc(C(=O)CSc2nc(N)cc(N)n2)cc1	1%	-1%
CC(=N\NC(=O)c1ccccc1)/C(=N/O)C(=O)Nc1ccccc1	-7%	11%
CCc1nnc(NC(=O)CCC(=O)N2CCCC(O)C2)s1 (stereo unspecified)	-5%	-1%
Cc1cc(C)n(CCCNC(=O)c2ccc(C)c(S(=O)(=O)N3CCOCC3)c2)n1	-3%	.
CC(=O)N1CCc2cc(S(=O)(=O)NC(Cc3ccccc3)C(=O)Nc3cc(C)ccn3)ccc21 (stereo unspecified)	-10%	7%
Cc1ccccc1COc1ccc(/C=N/NC(=O)c2nnn(-c3nonc3N)c2CN2CCC(C)CC2)cc1	29%	2%
O=C(CSc1nc2ccccc2c(=O)n1-c1ccc(F)cc1)Nc1ccc(N2CCOCC2)cc1	-2%	7%
Nn1c(SCCOc2ccc(Cl)cc2)nnc1-c1cccnc1	15%	5%
O=C(Nc1ccnn1C1CCN(C(=O)c2cccc(C(F)(F)F)c2)CC1)C1CC1	-12%	3%
O=C(c1c[nH]c2ccc(S(=O)(=O)N3CCOCC3)cc2c1=O)N1CCN(c2ccccn2)CC1	4%	3%
O=c1[nH]cc(S(=O)(=O)N2CCN(c3cccc(Cl)c3)CC2)c(=O)[nH]1	-20%	1%
Cc1c(N=N/C(C(=O)Nc2ccccc2)=C(/O)c2ccccc2)c(=O)n(-c2ccccc2)n1C	5%	7%
CCOC(=O)N1CCN(C(=O)c2ccc3c(=O)n4c(nc3c2)CCCCC4)CC1	3%	-5%
Nn1c(SCC(=O)Nc2ccc(F)cc2)nnc1-c1ccccn1	-17%	0%
Cc1ccc(-c2nnn(CC(=O)N(CCO)C(C(=O)NC3CCCC3)c3ccc(F)cc3)n2)o1 (stereo unspecified)	7%	-3%
Cc1nc(NC(=O)c2ccccc2)sc1-c1csc(N)n1	16%	10%
COc1ccc(CCn2c(=N)c(C(=O)NCC3CCCO3)cc3c(=O)n4ccccc4nc32)cc1 (stereo unspecified)	-4%	2%
O=C(Cn1c(-c2ccc(Cl)cc2)noc1=O)N1CCN(c2ccccc2F)CC1	-8%	1%
COc1ccc(-n2c(Cc3cccn3C)nnc2SCC(=O)Nc2ccc3c(c2)OCO3)cc1	0%	11%
Cc1ccc2[nH]c3c(c2c1)CN(C(=O)CN1CCN(c2ccccn2)CC1)CC3	-1%	9%
NC(=O)c1nsc(C(=O)N(c2ccccc2)C(C(=O)NC2CCCC2)c2cccs2)c1N (stereo unspecified)	8%	.
O=C(CCn1nnc2ccccc21)N1CCN(c2ccccc2)CC1	8%	-2%

Screens from PubChem BioAssay.
